CapD inh – CapD enzyme inhibition; purified CapD enzyme, fluorescence intensity read-out; stronger effect = lower value; some hits fall short of the stated cut; z-score (concentration not given with the values); 140,000 tested, 0.23% active;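 active = z-score under -4 in either of two replicates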;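 also: stock transfer was 100 nL into about 40 µL; score is relative to mean and spread of the plate; one replicate is shown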
AID504770 – growth inhibitors of E. coli YBA685 in a screen for V. cholerae RctB (chromosome II replication) inhibitors; E. coli YBA685 rctB-dependent plasmid, OD600 growth, 3 h; stronger effect = lower value; z-score (no concentration beside the values); 130,000 tested, 0.27% active;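 active = z-score under -2 on both plates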;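 also: wells of about 30 µL received 100 nL stock; score is relative to mean and SD of the test wells; the first replicate is given; strong numbers were not always called active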
* marks the source's active call; other numbers are inactive results; · = no result given. This is a random part of the collection; any-hit rate near 0.39%.

SMILES	CapD inh	AID504770
COc1ccc(CN(CCC2(c3ccccc3)CCOC(C)(C)C2)C(C)=O)cc1OC (stereo not given)	0.355	·
CC(Nc1ccccc1)C1CC1 (stereo not given)	0.14	·
CCOC(=O)c1cnc(N2CCCC2)nc1C1CCNCC1	0.49	-0.75
COC(=O)C1=NOC2C(=O)N(c3ccccc3)C(=O)C12 (stereo not given)	-0.78	-1.45
O=C(NN=C1CCCCC1)C1CC1c1ccccc1 (stereo not given)	·	0
Cc1nc(-c2cccnc2)sc1C(=O)Nc1ccc(C(F)(F)F)cc1	0.165	·
N#C/C(=C/Nc1cccc(C(F)(F)F)c1)c1nc(-c2ccc3c(c2)OCO3)cs1	-0.275	-0.4
CS(=O)(=O)c1ccc(C(=O)NCc2ccccc2)cc1	·	0.2
CC(C)Cn1c(CNC(=O)c2ccccc2)nc2ccccc21	-0.37	-0.1
O=C(OC1CSC1)c1cccs1	0.56	-1.3
O=C(c1ccccc1F)N1CCC(Cc2ccccc2)CC1	0.05	0
Cc1cc(C(F)(F)F)nc(SCc2ccc(C(=O)O)o2)n1	0.35	-0.15
CCOC(=O)c1ccc(NC(=O)COC(=O)c2cc3ccccc3o2)cc1	0.45	1.95
COC(=O)c1ccc(-c2ccc(Cl)cc2)s1	83.2	·
N#CC1=C(N)Oc2c(c(=O)oc3ccccc23)C1c1ccc(OC(=O)N2CCOCC2)cc1 (stereo not given)	0.48	·
Cc1ccc2c(c1)c1c(n2CC(O)CNCc2ccco2)C(=O)CCC1 (stereo not given)	·	1.5
CC1CCN(C(=O)COC(=O)Cc2ccc(Br)cc2)CC1	·	1.75
CCOC(=O)N1CCC(N2CCc3c([nH]c4ccccc34)C2)CC1	0.11	-0.3
C#CCn1c(O)c(N=NC(=O)c2cc(Cl)ccc2O)c2ccccc21	-0.61	2
Cc1cnc(NC(=O)COc2ccccc2Cl)s1	·	0.35
COC(=O)Nc1cc(NC(=O)OC)cc(C(F)(F)C(F)(F)C(F)(F)F)c1	·	0.05
COc1ccc(OC)c(NC(=O)c2sccc2Oc2ccccc2[N+](=O)[O-])c1	-1.23	·
CC(=O)Nc1ccc(-n2c(C)csc2=NC(=O)c2ccccc2)cc1	4.3	0.45
COc1ccc(NC(=O)c2ccc(NC(=O)CN(C)C3CCN(C)CC3)cc2)cc1	·	-0.15
O=S(=O)(c1ccc(-c2cnco2)cc1)N1CCN(C2c3ccccc3-c3ccccc32)CC1	0.7	0.8
COC(=O)COc1ccc(-c2nn(C)c(=O)c3ccccc23)cc1	0.065	-1.05
O=C(Nc1ccccc1C(=O)O)c1ccc(N2C(=O)c3cccc4c([N+](=O)[O-])ccc(c34)C2=O)cc1	0.205	·
CCN1CCN(C(c2cccs2)C(C)NC(=O)c2ccc3c(c2)OCO3)CC1 (stereo not given)	-0.01	-1.05
CCN(c1ccc(NC(=O)C(C)(C)C)cc1)c1nc(C)cc(C)n1	0.325	·
O=C(NCCN1CCCC1)c1cc2ccc3cccnc3c2[nH]1	0.43	0.15
C#CC(C)(O)CCC1=C(C)CCCC1(C)C (stereo not given)	-0.3	·
Nc1nccc(-c2cccc(Cl)c2F)n1	2.82	0.1
COc1ccc(Cl)cc1-n1c(=S)sc2c(=O)[nH]c(SCC(=O)Nc3nccs3)nc21	-0.23	·
CO/N=C(/CS(=O)c1ccc(Br)cc1)c1ccc(OC)cc1 (stereo not given)	0.33	·
CC1CCCC(NC(=O)NC(=O)COc2ccccc2C(N)=O)C1C (stereo not given)	·	0.4
CC(C)(CC(=O)O)CC(=O)Nc1ccc(C#N)cc1	-0.79	-0.6
O=C(NCc1ccc2c(c1)OCO2)c1ccc2c(=O)n(Cc3ccccc3)c(=S)[nH]c2c1	0.385	-0.65
COC(=O)c1cc(COC(=O)/C=C/c2c(C)nn(-c3ccccc3)c2C)oc1C	·	1.05
COc1cccc(-c2nc3sc4c(c3c(=O)n2CC(=O)Nc2ccc(F)c(Cl)c2)CCCC4)c1	3.01	·
COc1cc(-c2[nH]nc3c2C(c2ccccc2[N+](=O)[O-])C(C#N)=C(N)O3)cc(OC)c1OC (stereo not given)	3.6	·
CC(C)(C)c1ccc(C(=O)On2c(C3CCCCC3)nc3ccccc3c2=O)cc1	0.12	·
COC(=O)C(Cc1ccccc1)NC(=O)C12CC3CC(CC(C3)C1)C2 (stereo not given)	0.33	-0.15
COc1ccc(Cl)cc1N1C(=O)CSC1c1ccccc1[N+](=O)[O-] (stereo not given)	-0.495	·
Nc1ccc(-n2cnnc2)cc1	·	-0.5
Cc1nn(-c2ccccc2)c(C)c1CN(C)C(=O)C1COc2ccccc2O1 (stereo not given)	·	-0.1
CCc1nc2cccnc2n1-c1ccc(CC(=O)N2CCN(C)CC2)cc1	0.155	-1.75
CC(C)c1nccn1C(=O)c1ccccc1C(=O)O	0.64	0
CC1CCCCC1NC(=S)NN (stereo not given)	·	0.3
COc1ccc2cc3c(N)nn(C(=O)CCS(=O)(=O)c4ccccc4)c3nc2c1	0.12	0.3
O=C(CCC(=O)c1ccc(Cl)s1)NC1CCCC1	·	-2.35
CNC(=O)c1c(NC(=O)CS(=O)(=O)c2ccc(F)cc2)sc(C)c1C	·	-0.3
CN(Cc1ccccc1)C(=O)CN(C)S(=O)(=O)c1ccc2[nH]c3c(c2c1)CCCC3	-0.195	0.3
CCc1ccc(NC(=O)c2cc(C(C)C)on2)cc1	0.07	0.15
COc1ccc(CC(=O)Nc2cc3[nH]c(=O)[nH]c3cc2C)cc1OC	-0.11	0.9
CCN(Cc1ccncc1)S(=O)(=O)c1ccc(OC)c(OC)c1	-0.615	·
O=C(COC(=O)c1ccc2c(c1)OCO2)NC12CC3CC(CC(C3)C1)C2	·	0
NC(=O)C1CCCN(C(=O)Nc2cccc(C(F)(F)F)c2)C1 (stereo not given)	-0.105	-0.75
CN1C(=O)C2CCC(N)CC2C1=O (stereo not given)	-0.145	·
Cc1cn(-c2ccc(Br)cc2)[nH]c1=O	1.31	0.45
Cn1ccnc1P(=O)(O)c1ccccc1	·	0.65

Next results
SMILES	CapD inh	AID504770
COc1ccc(CCC(=O)OCN2C(=O)c3ccccc3C2=O)cc1	·	-0.75
COC(=O)C1C(=O)CC(=O)CC1(C)C (stereo not given)	0.14	·
CCOc1cc(C2C(C(=O)N3CCCCC3)=C(C)NC3=C2C(=O)CCC3)cc(Br)c1O (stereo not given)	3.45	·
O=C(NNC(=O)c1cccs1)OCCCCc1ccccc1	0.045	·
CC(C)(C)SCCNc1nc(Oc2ccc(F)cc2)nc(Oc2ccc(F)cc2)n1	0.045	2.25
Cc1c(N=C=S)c(=O)n(-c2ccccc2)n1C	·	-0.35
CCCN1C(=O)CC(c2ccccc2)Sc2ccccc21 (stereo not given)	-0.26	-0.4
NC(=O)c1c(NC(=O)CN2C(=O)S/C(=C\c3ccccc3Cl)C2=O)sc2c1CCCC2	-0.285	·
C=CCN1N=C(c2ccccc2)SC(C)=C1c1ccc(Cl)cc1	-0.345	·
Cc1ccc2nc(SCC(=O)N3CC4(C)CC3CC(C)(C)C4)[nH]c2c1 (stereo not given)	0.725	0.15
O=C(CON1C(=O)c2ccccc2C1=O)N1CCN(c2ccccc2)CC1	0.54	·
CC/C(Cc1ccccc1)=N\NC(=O)c1ccc(N)cc1	0.015	-0.25

17 neighbouring records out of the list so far:
SMILES	CapD inh	AID504770
COc1ccc(CN(CCC2(c3ccccc3)CCOC(C)(C)C2)C(C)=O)cc1OC (stereo not given)	0.355	·
CC(Nc1ccccc1)C1CC1 (stereo not given)	0.14	·
CCOC(=O)c1cnc(N2CCCC2)nc1C1CCNCC1	0.49	-0.75
COC(=O)C1=NOC2C(=O)N(c3ccccc3)C(=O)C12 (stereo not given)	-0.78	-1.45
O=C(NN=C1CCCCC1)C1CC1c1ccccc1 (stereo not given)	·	0
Cc1nc(-c2cccnc2)sc1C(=O)Nc1ccc(C(F)(F)F)cc1	0.165	·
N#C/C(=C/Nc1cccc(C(F)(F)F)c1)c1nc(-c2ccc3c(c2)OCO3)cs1	-0.275	-0.4
CS(=O)(=O)c1ccc(C(=O)NCc2ccccc2)cc1	·	0.2
CC(C)Cn1c(CNC(=O)c2ccccc2)nc2ccccc21	-0.37	-0.1
O=C(OC1CSC1)c1cccs1	0.56	-1.3
O=C(c1ccccc1F)N1CCC(Cc2ccccc2)CC1	0.05	0
Cc1cc(C(F)(F)F)nc(SCc2ccc(C(=O)O)o2)n1	0.35	-0.15
CCOC(=O)c1ccc(NC(=O)COC(=O)c2cc3ccccc3o2)cc1	0.45	1.95
COC(=O)c1ccc(-c2ccc(Cl)cc2)s1	83.2	·
N#CC1=C(N)Oc2c(c(=O)oc3ccccc23)C1c1ccc(OC(=O)N2CCOCC2)cc1 (stereo not given)	0.48	·
Cc1ccc2c(c1)c1c(n2CC(O)CNCc2ccco2)C(=O)CCC1 (stereo not given)	·	1.5
CC1CCN(C(=O)COC(=O)Cc2ccc(Br)cc2)CC1	·	1.75

Exported with bars between the fields: 2 of the compounds above
Molecule | CapD inh | AID504770
NC(=O)c1c(NC(=O)CN2C(=O)S/C(=C\c3ccccc3Cl)C2=O)sc2c1CCCC2 | -0.285 | ·
C=CCN1N=C(c2ccccc2)SC(C)=C1c1ccc(Cl)cc1 | -0.345 | ·

The list continues.
SMILES	CapD inh	AID504770
CC(=O)Nc1cccc(NC(=O)Cn2nc(-c3ccco3)ccc2=O)c1	·	-0.5
Cc1ccc(/C=C2\SC(=S)N(CCC(=O)Nc3c(C)n(C)n(-c4ccccc4)c3=O)C2=O)cc1	0	·
CNCC(O)COC1CCCCC1 (stereo not given)	·	1.25
Clc1ccc(Sc2c(-c3ccc(Br)cc3)nc3ccccn23)cc1	2.84	·
Cc1ccc(CN2C(=O)/C(=C3\SC(=S)N(C4CCS(=O)(=O)C4)C3=O)c3cc(Br)ccc32)cc1 (stereo not given)	-0.095	·
COc1ccc(C2NCCc3c2[nH]c2ccccc32)cc1CN1CCN(c2ccc([N+](=O)[O-])cc2)CC1 (stereo not given)	-0.99	·
OCCSc1nc(-c2cccnc2)nc2ccccc12	·	0.45
CCC(C)(C)c1nnc(N)s1	·	-0.15
CC(=O)Oc1cccc(-c2nc3ccccc3c(=O)o2)c1	0.135	-0.1
Cc1ccc(Nc2nc(Cl)nc(NCCN3CCOCC3)n2)cc1	1.49	·
Cc1c(CC(Cl)(Cl)Cl)c2c(n1-c1cccnc1)CCCC2=O	0.02	·
C=CCN1C(=O)C(=O)/C(=C(\O)c2ccc(Br)cc2)C1c1ccc(OC)c(OC)c1 (stereo not given)	-0.595	·
O=C(COC(=O)/C=C/c1ccc(F)cc1)Nc1ccc(Cl)cn1	·	0.7
O=C(O)CC1(CC(=O)Nc2ccc3c(c2)C(=O)OC3)CCCCC1	0.005	0.3
CCOC(=O)c1cc(-c2ccccc2)sc1NC(=O)CN1CCCCC1	9.05	-1.5
CS(=O)(=O)N1CCN(c2cccc(C(F)(F)F)c2)CC1	-0.13	2.45
CN1CCN(c2nc(-c3ccccc3)nc(-c3ccc(Cl)cc3)c2C#N)CC1	0.17	·
CC(C)CN(CC(C)C)C(=O)CSc1nn2c(=O)c(C(C)(C)C)nnc2s1	·	0.5
COc1cc(CN2CCN(CCOC(=O)NNC(=O)c3ccc(N(C)C)cc3)CC2)cc2c1OCO2	-0.425	·
COc1ccccc1N1CCN(c2ncnc3c2cnn3-c2ccc(C)c(Cl)c2)CC1	0.8	-1.15
COCCNC(=O)C1c2ccccc2C(=O)N2CCCCC12 (stereo not given)	1.19	-0.5
Cc1cc(C)nc(NC=C2C(=O)OC(C)(C)OC2=O)n1	-0.83	·
Cc1ccc2c(c1)c1c(n2CC(O)CN2C(=O)CNC2=O)C(=O)CCC1 (stereo not given)	-0.215	0.05
O=C(O)C12CC3CCC(CC(C3)C1)C2	0.995	0.15
O=C(Nc1ccc2ccccc2n1)C1CCN(c2nccc(C(F)(F)F)n2)CC1	-0.39	-0.75
O=S(=O)(Nc1ccc2[nH]ncc2c1)c1ccccc1F	0.9	·
CCc1ccc(CN(Cc2cn[nH]c2-c2ccc(OC)cc2)C(=O)NCc2ccc(C)cc2)cc1	-0.475	-0.65
O=C(CN1C(=O)CSc2ncccc21)N1CCN(c2ccccc2)CC1	-0.52	0.9
O=C(Nc1ccccc1Cl)OC1CN2CCC1CC2 (stereo not given)	-0.585	1.95
CCOC(=O)C1C(=O)N(C)C2(C)CC1c1cc(OC)ccc1O2 (stereo not given)	0.005	·
COc1ccc(OC)c(NC(=O)CSc2nc3n[nH]c(C)c3c(=N)n2-c2ccccc2Cl)c1	0.825	·
O=C1CCCC2=C1C(c1ccc3c(c1)OCO3)c1c([nH]c(=O)[nH]c1=O)N2 (stereo not given)	·	-0.45
S=C1NC2(CCS1)Oc1ccccc1C1CC(c3ccccc3)=NN12 (stereo not given)	0.42	-0.2
CC(=O)Oc1ccc(-c2ccc(C(=O)Nc3ccccn3)cc2)cc1	0.335	0
Cc1oc2c3c(ccc2c(=O)c1-c1ccc(F)cc1)OCO3	·	0.05
Cc1sc(N)nc1-c1cccs1	·	-0.75
COc1ccc(CN2CCN(c3cccc(C(F)(F)F)c3)CC2)cc1C	0.42	0.4
CCOCCOC(=O)C1=C(C)NC(=O)NC1c1cccc(OCc2ccccc2)c1 (stereo not given)	-0.585	·
Cc1nn2c(nc(N3CCCC3)c3ccccc32)c1C=C1C(=O)N(C)C(=O)N(C)C1=O	·	2.3
O=c1cc(C(F)(F)F)nc(-c2ccccn2)[nH]1	-0.175	-0.15
COC(=O)C1=C(C)N(C)C(=O)NC1c1cn(-c2ccccc2)nc1-c1ccc(Cl)cc1 (stereo not given)	0.475	·
COc1ccc(Cl)cc1-n1c(=S)sc2c(=O)[nH]c(SCC(=O)N3CCCC3)nc21	-0.135	·
CCC(CC)C(=O)c1c[nH]c(C(=O)N2CCN(c3ccccc3F)CC2)c1	-0.255	·
COc1ccc(/C=C2/SC(=Nc3cccc(C)c3)NC2=O)c(OC)c1	-0.27	·
Cc1cc(C)cc(NC(=O)COC(=O)c2ccc(S(=O)(=O)N3CCOCC3)cc2)c1	·	-0.65
COc1ccc(C(C(=O)NC2CCCCC2)N(CCN2CCOCC2)C(=O)Cc2c[nH]c3ccccc23)cc1OC (stereo not given)	·	-0.45
